Vaccinia pol inh: blocks vaccinia virus processive DNA synthesis; in vitro processive DNA synthesis, absorbance read-out; stronger effect = lower value; some inactives read as strong as hits; normalized absorbance, % (test concentration not listed); 46,000 compounds, 0.94% hits; AID 493162;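 active = replicate mean up to 90% and picked by the depositor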;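 also: 100% = median of the test wells of a plate; 100 nL library stock went into each well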
* hit, by the source's call. These rows are one share of the data; count on the stated rates, not on these rows.

SMILES	Vaccinia pol inh
Cc1cc(C)c(S(=O)(=O)N2CCCc3ccccc32)c(C)c1	101
O=C(/C=C/c1ccccc1Cl)Nn1cnc2ccccc2c1=O	100
O=C(Cc1ccccc1)NCCCl	97
CC(=NCc1ccccn1)c1c(O)c2ccccc2n(-c2ccccc2)c1=O	100
CCn1c2ccccc2c2cc(NS(=O)(=O)c3ccccc3)ccc21	100
O=C(CCSCc1ccc(Cl)cc1)Nc1cccnc1	104
CC(Oc1ccc(F)cc1)C(=O)Nc1ccccc1Br (stereo unspecified)	80
CCOC(=O)CSC1=C(C#N)C(C)C2=C(CCCC2=O)N1 (stereo unspecified)	97
CCN(CC)C(=O)Cc1cccs1	102
CCc1nc2ccccc2n1C(=O)CCC(=O)O	97
CN(C(=O)c1cc2nc(-c3ccco3)cc(C(F)(F)F)n2n1)C1CCCCC1	102
Cn1c(=O)c2nc(-c3ccccc3I)oc2c2ccccc21	90
CCOc1cc2c(cc1OCC)-n1cccc1C(c1c(O)cccc1OC)NC2 (stereo unspecified)	108
N#Cc1c(-c2ccco2)cc(-c2ccccc2)nc1SCc1nc2ccccc2[nH]1	100
CN(Cc1ccccc1)C(=O)CSc1nc(NCc2ccc(Cl)cc2)c2ccccc2n1	97
O=C(Cn1cnc2ccccc2c1=O)OCc1ccccc1	98
CNC(=O)C(C)n1c2ccccc2c2cn[nH]c(=O)c21 (stereo unspecified)	102
Cc1ccc(CN(CC(=O)O)Cc2cn(-c3ccccc3)nc2-c2cccs2)cc1	97
Nc1nc2ccccc2n1CCOc1ccc(Br)cc1	101
COc1ccc(CNC(=O)C2CCN(S(=O)(=O)c3cnc[nH]3)CC2)cc1	94
O=C(COC(=O)c1ccc(Br)o1)Nc1cccc2ccccc12	105
CC(C)c1ccc(NCc2nc(-c3ccc(Cl)cc3Cl)no2)cc1	100
CCOC(=O)c1cncc(C#CCOC(=O)Nc2ccc(OC(F)(F)F)cc2)c1	105
Cc1ccc(C=Nc2c(F)cccc2F)o1	103
Cc1ccc(C)c(NC(CC(=O)c2ccccc2)C(=O)O)c1 (stereo unspecified)	100
CC1=CCC(COC(=O)Nc2ccccc2)CC1 (stereo unspecified)	100
Cc1ccccc1C(=O)N1CCc2c([nH]c3ccccc23)C1C(F)(F)F (stereo unspecified)	99
CCc1ccccc1Nc1cc(C(=O)NCCN2CCCCCC2)c2ccccc2n1	99
Cc1nc2ccc(S(=O)(=O)NC(C(=O)Nc3nc4ccc(Cl)cc4s3)C(C)C)cc2s1 (stereo unspecified)	104
CCCCn1nnc2c(=O)oc3ccccc3c21	100
Cc1ccc(C(=O)Nc2ccc(CN3CCS(=O)(=O)CC3)cc2)cc1C	112
CC(C)N(CCC#N)C(=O)Nc1ccccc1	114
Clc1ccc2nc(-c3ccco3)cc(-c3ccccc3)c2c1	100
O=C(c1cc2ccccc2c(=O)o1)N1CCCCCC1	100
Cc1csc(-c2cn(C(C)C)c(=O)n(Cc3ccccc3)c2=O)n1	108
CC(=O)Nc1cc2c(C)cc(=O)oc2c2c1OCC2=O	98
Cc1ccc(C2=NNC3(CCOC(C)(C)C3)S2)cc1 (stereo unspecified)	100
CC(=O)Nc1cc(C(=O)NCc2ccccc2)ccc1Sc1ccc(Cl)cc1	98
CC(C)(C)C(=O)OCC(=O)Nc1ccccc1	105
CCOc1ccc(CCNC(=O)c2ccc3c(=O)n4c(nc3c2)CCCCC4)cc1	98
CCc1cccc2c(C#N)cn(CC(=O)NCc3ccco3)c12	102
CCCc1cnc(N2CCN(C(=S)NC)CC2)nc1	95
COc1ccc(-c2cc(C(F)(F)F)n3nc(N)nc3n2)cc1	106
CCCn1c2ccccc2c2nnc(SCC(=O)NCc3ccc4c(c3)OCO4)nc21	100
CN1CCc2nc(SCc3cccc(C(F)(F)F)c3)c(C#N)cc2C1	89
CCOP(C)(=O)C1(C#N)CC1 (stereo unspecified)	99
O=C(O)c1ccc(CSC2CCCCC2)cc1	100
COC(=O)c1ccc(Oc2ncnc3sc4c(c23)CCCC4)cc1	101
CCN(CC)S(=O)(=O)c1ccc(/C=C/C(=O)Nc2ccccc2C)cc1	105
O=C(Nc1ccc(Cl)c(Cl)c1)C1C2CC/C=C\CCC21 (stereo unspecified)	100
CC(NC(=O)c1ccccc1)c1cccs1 (stereo unspecified)	82
CC(C)COc1ccc(/C(=N\O)c2ccccc2)cc1	88
CC1(C)C=C(c2ccc(C3=CC(C)(C)NC(C)(C)C3)s2)CC(C)(C)N1	100
O=c1ccn([C@@H]2O[C@H](COP(=O)(O)OP(=O)(O)OP(=O)(O)O)[C@@H](O)[C@H]2O)c(=O)[nH]1	103
Cc1nn2c(CN(C(=O)c3ccccc3)c3ccccc3)nnc2c2ccccc12	111
O=C(Nc1ccc(Br)cc1)C12CC3CC(CC(C3)C1)C2	99
O=C1CCCN1CCc1ccccn1	100
NNC(=O)CSc1nc(-c2ccccc2)nc2c1CCCC2	100
C=CCN=C(Cc1ccccc1)C1=C(O)CC(C)(C)CC1=O	101
Cc1ccc(OCC(O)CN2C(=O)NC(C)(C)C2=O)cc1 (stereo unspecified)	100
Going on with the list.
SMILES	Vaccinia pol inh
CCOC(=O)c1ccc(-n2ccnc2)c(NC(=O)c2ccccc2)c1	96
CCOc1ccccc1NC(=O)Cn1c(CC)nc2ccccc21	103
O=C(O)c1cc(=O)c2cccc(O)c2[nH]1	101
c1ccc(N=C2CCCC2)nc1	102
CCCC(O)(CCC)C(=O)NN1CCCCC1	101
COc1cnc(-c2ccccc2)nc1Sc1ccccc1	102
Cc1ccc(S(=O)(=O)NCCN2CCN(S(=O)(=O)c3ccc(C)c(C)c3C)CC2)c(C)c1C	99
CN(C(=O)c1c[nH]c2ccc(S(=O)(=O)N3CCC4(CC3)OCCO4)cc2c1=O)C1CCCCC1	97
O=C(O)C(c1c(O)c2ccccc2oc1=O)c1c(O)c2ccccc2oc1=O	98
CC12CCCCC1C1(C=CC(=O)C=C1)C(c1ccccc1)=N2 (stereo unspecified)	97
c1ccc(Oc2ccc(-n3cnnn3)cc2)cc1	103
Cc1ccc(Sc2cnc3ccccc3n2)cc1	119
CCN(CC)Cc1c(C)c(C)c(C)c(C)c1C	97
Cc1csc(NC(=O)c2sc3cc(F)ccc3c2Cl)n1	84
COc1ccc(N=Cc2ccc(-c3ccc(OC)cc3)o2)cc1	101
CSC1=NCCN1S(=O)(=O)c1ccc2ccccc2c1	107
COc1ccc(-n2nc(C(=O)NCc3ccc(C)cc3)c3c4ccccc4n(C)c3c2=O)cc1Cl	101
Cc1ccc2occ(/C=N/O)c(=O)c2c1	109
COCC(=O)NCc1nn(-c2ccccc2)nc1C	99
CSc1cccc(NS(=O)(=O)c2cc3[nH]c(=O)c(=O)[nH]c3cc2C)c1	110
O=C(NCc1ccccc1)c1ccc2c(=O)n(CCC3=CCCCC3)c(=O)[nH]c2c1	100
CC(C)CNC(=O)c1cccc(NC(=O)c2ccco2)c1	109
CCc1nnc(NC(=O)c2noc3c2COc2ccc(C)cc2-3)s1	98
O=C1/C(=C\c2ccc(F)cc2)N=C(c2ccccc2)N1Cc1ccc(F)cc1	78
OC(COc1ccc(Br)cc1Br)C[N+]1(Cc2ccccc2)CCOCC1 (stereo unspecified)	95
O=C(NCC1CCCO1)C1CCN(CC2CCCCC2)CC1 (stereo unspecified)	102
O=C(CCCC1=NS(=O)(=O)c2ccccc2N1)Nc1ccccc1	100
COc1ccccc1CNC(=O)C(C)C	96
COc1ccc(CNc2nc(N)n(-c3ccccc3)n2)cc1	102
Nn1c(C(=O)N2CCCC2)nc2ccccc2c1=O	94
Cn1c(=O)c2cc(S(=O)(=O)NCCC(=O)NC3CCCC3)ccc2n(C)c1=O	95
CC(=O)NC(C)(C)C(=O)N1CCCC1C(=O)NC(C)(C)C(=O)NC(C)C(=O)NC(C)(C)C(=O)NC(C)C(=O)NC(CCC(N)=O)C(=O)NC(C)(C)C(=O)NC(C(=O)NC(C)(C)C(=O)NCC(=O)NC(CC(C)C)C(=O)NC(C)(C)C(=O)N1CCCC1C(=O)NC(C(=O)NC(C)(C)C(=O)NC(C)(C)C(=O)NC(CCC(=O)O)C(=O)NC(CCC(N)=O)C(=O)NC(CO)Cc1ccccc1)C(C)C)C(C)C (stereo unspecified)	98
S=C(Nc1cccnc1)NC1CCCCCCC1	101
C=CCN(c1ccccc1)S(=O)(=O)c1ccc2c(c1)OC(C)CN2C(C)=O (stereo unspecified)	94
CCn1c(-n2nc(C)cc2NC(=O)c2ccccc2)nc2ccccc21	104
CNc1nc(C)c(C(C)(C)C)s1	102
O=C(Nc1c2c(nn1-c1ccccc1)CSC2)C1CC1	101
O=C(Nc1cccc(C(F)(F)F)c1)/C(=C\c1cccnc1)NC(=O)c1cccs1	102
COc1cccc(OCC(=O)Nc2ccc(F)cc2)c1	100
COc1ccc(C(=O)C2CC2c2ccc(Cl)cc2)cc1 (stereo unspecified)	86
CNCc1cn2cc(Cl)ccc2n1	96
O=C(Nc1c2c(nn1-c1ccc(Cl)cc1)CS(=O)(=O)C2)C1CC1	101
C=CCN1C(=O)c2oc3ccccc3c(=O)c2C1c1ccc(O)c(OC)c1 (stereo unspecified)	107
CN(C)C(=O)c1cn(-c2ccccc2)nc1-c1cc2ccccc2o1	74
CCc1ccc2[nH]c(C(=O)NCCc3ccccc3)cc2c1	103
OC(c1ccc(-c2ccccc2)[nH]1)C(F)(F)F (stereo unspecified)	80
O=C(CCc1ccccc1)Nc1nn2c(-c3ccccc3)nnc2s1	93
O=C(OCC(=O)N1CCc2ccccc2C1)c1cccnc1Cl	103
CCC1=C(C)/C(=C\c2[nH]c(C)c(CC)c2C)N=C1C	95
Cc1csc2ncc(C(=O)N(C)c3ccccc3)c(=O)n12	102
CC(C)C1=NC(C(F)(F)F)(C(F)(F)F)NN1c1ccccc1	99
O=C(CSc1nc2ccccc2c(=O)[nH]1)c1ccc(-c2ccccc2)cc1	103
O=C(Nc1ccccc1)Nc1csc(-c2ccc(C(F)(F)F)cc2)n1	103
O=C(c1ccccc1)C12CN3CN(CN(C3)C1)C2	102
CCOC(=O)c1[nH]c2ccccc2c1NC=O	84
Cc1ccc(C(=O)O)cc1NC(=O)c1ccco1	100
O=C(NCc1ccco1)c1ccccc1N(Cc1ccccc1)S(=O)(=O)c1ccccc1	94
O=C(O)CCN1Cc2ccccc2C1=O	103
CC(C)(C)c1cc(-c2csc(-c3ccno3)n2)cc(C(C)(C)C)c1O	99
S=c1nc2[nH]c(=S)[nH]c(=S)c2c(-c2ccco2)[nH]1	60*
The listing continues:
SMILES	Vaccinia pol inh
CC1CC(C)(C)NC(=S)N1CC(=O)N1CCC(Cc2ccccc2)CC1 (stereo unspecified)	102
COc1ccc(CNCc2ccc(F)cc2)cc1	100
O=C(c1ccc(COc2ccccc2Br)cc1)N1CCc2ccccc2C1	100
COc1ccc(C2=NN(CC(=O)NCC3CCCO3)C(=O)CC2)cc1 (stereo unspecified)	110
O=C(c1ccc2ncsc2c1)N1CCCCC1	91
COc1ccc(I)cc1S(=O)(=O)NCc1ccccn1	100
CN(C)c1ccc(CNc2nc3ccccc3n2C)cc1	90
O=C(CCOc1ccccc1)Nc1ccc(O)c(-c2nc3ccccc3s2)c1	92
CSC1=C(C#N)C(c2ccc(C(C)C)cc2)CC(=O)N1 (stereo unspecified)	102
CCOC(=O)c1c(CNc2cccc(C(N)=O)c2)n(C)c2cc(Br)c(OC(C)=O)cc12	100
CCSc1nnc(CSc2ncccn2)n1CCc1ccccc1	92
O=C(Nc1ccccc1SCC(O)CSc1cccs1)c1ccc(Cl)cc1 (stereo unspecified)	99
CC(C)NC(=S)N1CCC(Cc2ccccc2)CC1	101
Cc1cccc(NC(=O)NC(=O)c2ccc(C(C)(C)C)s2)n1	103
O=S(=O)(c1cc(Cl)ccc1Cl)n1ccc(-c2ccc(Br)s2)n1	99
O=C(Nc1ccc(Br)c(C(F)(F)F)c1)c1ccc(CN2C(=O)c3ccccc3C2=O)o1	109
Nc1nonc1-c1nc2ccccc2n1Cc1ccc(F)cc1Cl	101
Cc1cccc(NC(=O)C2=Cc3sc(C)c(C)c3CS2)c1C	95
CCCC(C)C(=O)NCc1ccccc1OC (stereo unspecified)	98
CC1=C(C(N)=O)C(c2ccccc2)n2nc(SCc3ccccc3)nc2N1 (stereo unspecified)	101
Cc1[nH]c2ccccc2c1C1=CCNCC1	98
NNC(=O)Cc1csc2nc(-c3ccccc3)nn12	100
COc1ccc(/C=C/C(=O)OCC(=O)NC2CCCC(C)C2C)cc1 (stereo unspecified)	98
CS(=O)(=O)c1sc(NC(=O)Nc2ccc(Cl)cc2)c2c1C=CCC2	97
CCOc1ccc(NC(=O)N(CCCN2CCOCC2)Cc2cccnc2)cc1	109
CCOC(=O)c1ccc2nc(C(F)(F)F)nc(NCCCc3ccccc3)c2c1	105
c1ccc(-c2cc3c(N4CCOCC4)ncnc3s2)cc1	92
COc1nc(C)nc2sc3c(c12)CCCC3	101

Source: PubChem (ICCB-Longwood Screening Facility, Harvard Medical School)
